Screening results as filed in PubChem BioAssay.
NCOA2 inhibitor – inhibits human steroid receptor coactivator 2 | Q15596 | HEK293 GAL4-SRC2 luciferase reporter, luminescence | inhibition, % at 9 µM | hit rate 0.17% among 370,000;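 active = inhibition above the mean inhibition of all tested compounds plus 3 SD, set per campaign, cut at about 52% in these data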;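 also: 0% = DMSO treated cells and 100% = cells given Gossypol at 36 µM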
NCOA1 inh – inhibits human SRC1 coactivator. Q15788. HEK293 GAL4-SRC1 luciferase reporter, luminescence. inhibition, % at 3.6 µM. hit rate 0.12% among 360,000. AID 588354;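 active = inhibition above the campaign mean plus 3 SD, with each screening campaign given its own cutoff, cut at about 60% in these data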;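 also: 0% = DMSO treated cells and 100% = gossypol at 36 µM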
NOD2-RIPK2 inh – inhibitors of human NOD2-RIPK2 interaction; CHO BLA complementation NOD2-RIPK2, CCF4 ratio; inhibition, % at 4.98 µM; hit rate 0.38% among 360,000; in the data active = inhibition above about 21%;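 also: 0% = vehicle only and 100% = reference blocker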
COUP-TFII inh – inhibitors of human COUP-TFII (NR2F2); P24468; HEK293T NGFI-A luciferase reporter, luminescence; inhibition, % at 8.6 µM; hit rate 0.7% among 370,000; AID 686940;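 active = inhibition above a per-plate cutoff, mean inhibition of test wells between control levels plus 3 SD, cut at about 38% in these data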;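 also: cells cotransfected with COUP-TFII expression vector driving the NGFI-A reporter; 0% = median of COUP-TF2 test wells and 100% = reporter-only cells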
TLR9-MyD88 inh – blocks human TLR9 binding to MyD88. Q9NR96+Q99836. inhibition, % at 4.98 µM. hit rate 0.21% among 340,000. CHO BLA complementation TLR9-MyD88, CCF4 FRET ratio;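 active = inhibition above the mean over all tested compounds plus 3 SD, cut at about 21% in these data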;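 also: 0% = DMSO only wells and 100% = clavulanate BLA inhibitor control wells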
* = called active by the depositor; / = not tested or not shown.

| cpd | SMILES | NOD2-RIPK2 inh | NCOA2 inhibitor | NCOA1 inh |
| --- | --- | --- | --- | --- |
| 1 | Cc1cc2[nH]c3c(c[n+](C)c4ccccc34)c2cc1C | 8 | -481 | 40 |
| 2 | CCOc1ccccc1C1NC(=O)c2ccccc2N1 (configuration not stated) | 0 | -12 | -28 |
| 3 | CCN(CC)c1ccc2c(Nc3ccccc3)c(C=O)c(=O)oc2c1 | -1 | 1 | -1 |
| 4 | NC(=O)c1c(NC(=O)c2ccccc2F)sc2c1CCC2 | 1 | / | -97 |
| 5 | O=C1NC[C@H](c2ccccc2)OC(=O)[C@H](Cc2ccc(F)cc2)CC/C=C/C[C@H]1CC(=O)N(CCO)Cc1ccccc1 | -5 | 18 | 0 |
| 6 | COc1ccc(C2CC(c3ccccc3)=NN2C(=O)CCCC(=O)O)cc1 (configuration not stated) | 2 | -27 | -10 |
| 7 | O=C(O)c1cc(NS(=O)(=O)c2cccc3ccccc23)ccc1O | -12 | -16 | -5 |
| 8 | CC(=O)Nc1cccc(-c2nnc(-c3ccc(C)cc3)o2)c1 | -8 | -16 | -38 |
| 9 | N#Cc1c(-c2cccc(Br)c2)cc(-c2ccco2)[nH]c1=O | -2 | 10 | 0 |

| cpd | TLR9-MyD88 inh | COUP-TFII inh |
| --- | --- | --- |
| 1 | 7 | -69 |
| 2 | -1 | -33 |
| 3 | -5 | 2 |
| 4 | 1 | / |
| 5 | -2 | 24 |
| 6 | 0 | 9 |
| 7 | 2 | 13 |
| 8 | 9 | -20 |
| 9 | -6 | -1 |

Single records (already shown). Values in the order: NOD2-RIPK2 inh, NCOA2 inhibitor, NCOA1 inh, TLR9-MyD88 inh, COUP-TFII inh
COc1ccc(C2CC(c3ccccc3)=NN2C(=O)CCCC(=O)O)cc1 (configuration not stated) reads 2, -27, -10, 0, 9
N#Cc1c(-c2cccc(Br)c2)cc(-c2ccco2)[nH]c1=O reads -2, 10, 0, -6, -1
CC(=O)Nc1cccc(-c2nnc(-c3ccc(C)cc3)o2)c1 reads -8, -16, -38, 9, -20
CCN(CC)c1ccc2c(Nc3ccccc3)c(C=O)c(=O)oc2c1 reads -1, 1, -1, -5, 2

Only part of the results is shown; count on the stated rates, not on these rows.
